Compound activity from PubChem BioAssay.
NS1 inh: inhibitors of influenza NS1 protein function. AID 2326. actives 0.4% (n = 270,000). Potency, µM (doses to about 46.1 µM), for the others: at the top dose activity, positive = more growth. S. cerevisiae slowed by influenza A NS1, growth recovery by OD600; active means well fitted rising curve with a large enough effect; inconclusive means small, poorly fitted or top-dose-only effect; inactive means no such curve, though single readings can be large or run the other way; further: nearly all actives have a fitted effect of over 50% in size
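A cell-based growth assay was used: compounds that relieve NS1-induced slow growth of budding yeast raise OD600. Assay medium was yeast nitrogen base with ammonium sulphate and -URA supplement, pH 6.0, with 2% galactose.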
Cruzain inh Det: blocks cruzain activity in presence of Triton detergent; P25779; purified cruzain, Z-FR-AMC fluorescence, 0.01% Triton; Potency, µM, without a hit: max response, negative = inhibition, usual class: inhibitors; actives 0.43% (n = 200,000); AID 1478;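 further: plate controls were neutral wells for no effect and buffer without enzyme for full effect; nearly all actives have a fitted effect of over 40% in size; top concentration of the series not given in the record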
Target sequence (P25779 123-467 limits assumed): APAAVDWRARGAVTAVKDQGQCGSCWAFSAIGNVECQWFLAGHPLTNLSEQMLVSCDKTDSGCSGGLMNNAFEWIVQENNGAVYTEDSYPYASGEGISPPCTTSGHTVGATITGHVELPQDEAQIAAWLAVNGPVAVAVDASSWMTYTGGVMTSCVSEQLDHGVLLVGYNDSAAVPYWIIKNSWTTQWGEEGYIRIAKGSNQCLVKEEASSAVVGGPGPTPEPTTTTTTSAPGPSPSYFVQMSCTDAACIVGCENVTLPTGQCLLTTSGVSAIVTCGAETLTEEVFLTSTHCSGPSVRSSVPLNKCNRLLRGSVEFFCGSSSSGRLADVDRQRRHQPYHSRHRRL
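Enzyme 1.5 nM, Z-FR-AMC 2 uM, NaOAc 100 mM pH 5.5, DTT 5 mM, Triton X-100 0.01%; 15 min RT compound preincubation; kinetic ex360/em450, 60 s delta.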
SARS PLpro yeast: blocks SARS-CoV papain-like protease in a yeast assay | S. cerevisiae expressing SARS-CoV PLpro, growth rescue; control for the full effect not named in the record | actives 0.19% (n = 330,000) | AID 485353 | Potency, µM (doses to about 32.9 µM), without a hit: at the top dose activity, positive = growth rescue; active means well fitted rising curve with a large enough effect; inconclusive means small, poorly fitted or top-dose-only effect; inactive means no such curve, though single readings can be large or run the other way; further: 0% is about no effect; nearly all actives have a fitted effect of over 55% in size; growth read by luminescence after 48 h
2A StopGo: FMDV 2A StopGo reporter, luciferase signal; human cells with a luciferase reporter of 2A StopGo recoding; control for the full effect not named in the record; Potency, µM (series often up to 57.9 µM), without a hit: at the top dose signal change, negative = less light; actives 1.2% (n = 410,000); AID 1159524; active = well fitted falling curve with a large enough effect; inconclusive = small, poorly fitted or top-dose-only effect; inactive = no such curve, though single readings can be large or run the other way; tested in HEK293T cells; further: on the % scale 0 is the no-effect control and ±100 the full control effect; nearly all actives have a fitted effect of over 45% in size; luciferase light after 4 h
RE007 growth inh: less growth of the S. pombe RE007 Vpr strain | S. pombe RE007 Vpr strain, BacTiter-Glo ATP luminescence, 24 h; control for the full effect not named in the record | Potency, µM (titrated, usually from 92.2 µM), without a hit: at the highest dose activity change, negative = less growth | actives 0.21% (n = 360,000); active = well fitted falling curve with a large enough effect; inconclusive = small, poorly fitted or top-dose-only effect; inactive = no such curve, though single readings can be large or run the other way;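 further: on the % scale 0 is the no-effect control and ±100 the full control effect; nearly all actives have a fitted effect of over 50% in size; the assay follows cell death caused by Vpr and the record does not say whether a fall means rescue or toxicity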
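Fission yeast strain RE007, carrying one chromosomally integrated HIV-1 vpr copy, was seeded at OD 0.01 in PMG+AL medium with 23 nL pinned compound. After 24 h at 30 °C and 99% humidity, viability was read by BacTiter-Glo luminescence.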
Marburg entry inh: blocks Marburg virus binding to or entry into cells. actives 1.8% (n = 300,000). Marburg virus pseudotyped entry inhibition, cell reporter; control for the full effect not named in the record; about a third of the inactives were read at about 46 µM. Potency, µM (titrated, usually from 37.8 µM), inactives show top-dose activity change, negative = inhibition, most hits filed as inhibitors; active = well fitted inhibition curve with a large enough effect; inconclusive = small, poorly fitted or top-dose-only effect, or effect the other way; inactive = flat fitted curve, though single readings scatter; tested in HEK293 cells; about a fifth of its hits are not listed in these tables; further: on the % scale 0 is the no-effect control and ±100 the full control effect; luciferase read-out
Cruzain inh noDet: cruzain (T. cruzi) inhibition without detergent; P25779; purified cruzain, Z-FR-AMC fluorescence, no detergent; Potency, µM, inactives show max response, negative = inhibition, hits mostly inhibitors; actives 2.3% (n = 200,000);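 further: plate controls were enzyme without inhibitor for no effect and buffer without enzyme for full effect; nearly all actives have a fitted effect of over 40% in size; top concentration of the series not given in the record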
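Purified cruzain at 1.5 nM, pre-incubated 15 min with compound at room temperature in 100 mM sodium acetate pH 5.5, 5 mM DTT, 0.00005% Triton X-100. Reaction started with 2 uM Z-FR-AMC; AMC fluorescence increase over 60 s gives rate.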
Lassa entry inh: Lassa virus entry inhibition; Potency, µM (top dose mostly 37.9 µM), inactives show top-dose activity change, negative = inhibition, hits mostly inhibitors; actives 1.2% (n = 300,000); Lassa virus pseudotype entry inhibition, cell reporter; control for the full effect not named in the record; active means well fitted inhibition curve with a large enough effect; inconclusive means small, poorly fitted or top-dose-only effect, or effect the other way; inactive means flat fitted curve, though single readings scatter; tested in HEK293 cells; further: on the % scale 0 is the no-effect control and ±100 the full control effect; nearly all actives have a fitted effect of over 50% in size; luciferase read-out
* = called active by the depositor; ? = inconclusive; / = not tested or not shown; & = joins results of further samples; [ ] = dose if it differs, or a comment. Unless noted, the call rests on the fitted dose curve; in most records, active means well fitted curve in the direction sought with a large enough effect; inconclusive means small, poorly fitted or top-dose-only effect, or another doubt; inactive means no such curve, though single readings can be large; an effect the other way counts as inactive or inconclusive. Potency means the concentration at half of the fitted maximal effect.

SMILES | NS1 inh | Cruzain inh Det | SARS PLpro yeast | 2A StopGo | RE007 growth inh | Marburg entry inh | Cruzain inh noDet | Lassa entry inh
CC(C)C(=O)NCCc1c[nH]c2ccccc12 | 21% | 2.1% | 13% | -6% | 8% | ? | -10% | -2%
COCCNC(=O)Cn1cc(C(=S)N2CCCCC2)c2ccccc21 | 3% | / | 0% | 13% | -13% | -8%[46.1 µM] | / | 21%[46.1 µM]
COc1ccc(CNC(=O)CSc2nc3c(oc4ccccc43)c(=O)n2CC2CCCO2)cc1 (stereo not given) | / | / | -3% | 10% | 18% | -21% | / | -21%[46.1 µM]
Cc1ccc(S(=O)(=O)n2c(C)nc3cc(C)ccc32)cc1 | -15% | / | 2% | -9% | -2% | / | / | /
COc1cc2c3c(c1)-c1c(sn(-c4cc(OC)ccc4OC)c1=S)C(C)(C)N3C(=O)C2=O | 3% | 5.1% | 0% | 3% | 1%[3.69 µM] | 20% | 0% | 5%
CN(C)c1ccccc1 | / | 0.1% | / | -9% | -12% | / | -1% | /
O=C(Nc1ccc(Cl)c(Cl)c1)OCCNC(=O)c1ccncc1 | / | / | -4% | ? | 20% | ? | / | 6%
COC(=O)c1ccccc1NC(=O)c1cccc(COc2ccccc2Cl)c1 | -5% | -5.3% | 0% | 17% | -6% | ? | ? | ?
N#C/C(=C\c1ccc(N2CCOCC2)c([N+](=O)[O-])c1)c1nc2ccccc2[nH]1 | 22% | -11% | 4% | -2% | -19% | ? | 11% | ?
COc1cc(/C=C2\SC(N)=NC2=O)ccc1O | 23% | / | 4% | 14% | 6% | ? | / | -2%[46.1 µM]
Cc1cccn2c(=O)c3cc(C#N)c(=NC(=O)c4ccncc4)n(CCCOC(C)C)c3nc12 | 18% | -7.1% | -2% | ? | -7% | -11% | 2% | 1%
Cc1nc2ccc(NS(=O)(=O)c3ccc4c(c3)OCCO4)cc2s1 | -20% | -3.9% | -2% | -13% | 25% | ? | -7% | ?
CCOc1ccc(CC(=O)OCc2cc(=O)n3cc(Br)ccc3n2)cc1 | / | / | 0% | -8% | -7% | -1%[46.1 µM] | / | -4%[46.1 µM]
CCOc1ccc(NC(=O)CN(C)C(=O)CSc2ccccc2)cc1OCC | / | / | -1% | -12% | -22% | -11% | / | 3%
O=C(Nc1cccc(-c2ccc(N3CCCCC3)nn2)c1)c1ccco1 | / | / | -6% | -5% | 4% | ? | / | ?
CC(=O)Nc1cc(C(=O)N2CCCC2)ccc1S(=O)(=O)c1ccc(C)cc1 | 1% | 0.9% | 3% | 6% | -6% | -3% | -20% | -26%
CCOC(=O)C1CCCN(Cc2ccc(OCc3ccccc3)c(OC)c2)C1 (stereo not given) | -13% | / | 6% | 12% | -14% | / | / | /
C=C(C)Cn1c(N2CCCC2)nc2c1c(=O)[nH]c(=O)n2C | -11% | 1.2% | -6% | -5% | 12% | / | -8% | /
O=C(COC(=O)c1ccccc1O)NCCCc1ccccc1 | / | / | 1% | -17% | 14% | -12%[46.1 µM] | / | ?
CSc1nc(C)c(C(=O)C[n+]2ccccc2C)cc1C#N | 2% | / | 1% | -1% | -7% | / | / | /
Cc1cccc(NC(=O)c2cc(-c3cc(C)c(C)cc3O)n[nH]2)c1 | -2% | / | -1% | 65%[activator] | -1% | ? | / | ?
CCOC(=O)c1sc(NC(=S)NC(=O)C23CC4CC(CC(C4)C2)C3)cc1C | 7% | -2.3% | 16% | 23% | -5% | 20% | ? | 30%
C=C(C)C1CC=C(C)/C(=N/NC(=O)c2ccc(NC(=O)CCC)cc2)C1 (stereo not given) | -1% | -2.5% | 1% | 3% | 16% | ? | 3% | ?
O=C(c1ccccc1)N1CCN=C1SCc1ccc([N+](=O)[O-])cc1 | -2% | -5.7% | -10% | ? | -12% | ? | -5% | ?
CCC(C)NC(=O)CCSc1ccc(C)cc1 (stereo not given) | ? | 1.7% | 19% | 23% | -16% | ? | -4% | 5%
COc1ccc(CCN2C(=O)NC(NS(=O)(=O)c3ccc(Cl)cc3)(C(F)(F)F)C2=O)cc1OC (stereo not given) | / | / | 1% | 13% | 0% | 13%[46.1 µM] | / | -4%
O=C(O)c1ccc(NC(=O)C2CC=CCC2C(=O)O)cc1 (stereo not given) | -21% | 1.9% | -1% | -14% | 2% | 24% | -5% | 4%
COC(=O)c1scc(C)c1NS(=O)(=O)c1ccc(NC(C)=O)cc1 | -1% | / | 0% | -8% | -3% | 6%[46.1 µM] | / | 0%
CCc1cccc(NC(=O)c2cc3c(=O)n(Cc4ccccc4)ccc3nc2C)c1 | / | -7.4% | / | ? | / | / | ? | -18%[46.1 µM]
COc1ccc(S(=O)(=O)N(CC(=O)Nc2ccccc2C(=O)N2CCOCC2)c2ccc(F)cc2)cc1 | 18% | / | 2% | -6% | -24% | 11% | / | -15%
Cc1ccc(NC(=O)COC(=O)/C=C/c2cccs2)c(C)c1 | 0% | -1.7% | 8% | -13% | 24% | -5% | ? | 16%
CS(=O)(=O)Nc1ccc(C(=O)NCCC2=CCCCC2)cc1 | 3% | 2.0% | / | 63%[activator] | 8% | ? | -2% | 1%
O=C(CSc1nnc(COc2ccccc2)o1)c1ccccc1 | -5% | -2.0% | 1% | 2% | -25% | 1% | ? | ?
Cc1cc(Br)ccc1NC(=O)CN(C)C(=O)C1CCN(c2ncnc3sc(C)c(C)c23)CC1 | / | / | / | ? | 0% | ? | / | ?
COC(=O)c1cc2ccsc2n1Cc1cccc(F)c1 | -7% | -5.7% | -26% | -4% | -14% | 0% | -8% | 3%
COc1ccc(-c2sccc2C(C)C(=O)O)cc1 (stereo not given) | -58% | 4.0% | -5% | 15% | 1% | 1% | -8% | 2%

Profiles, quoted from the list. Order of screens: NS1 inh	Cruzain inh Det	SARS PLpro yeast	2A StopGo	RE007 growth inh	Marburg entry inh	Cruzain inh noDet	Lassa entry inh
CS(=O)(=O)Nc1ccc(C(=O)NCCC2=CCCCC2)cc1 reads 3%	2.0%	/	63%[activator]	8%	?	-2%	1%
O=C(O)c1ccc(NC(=O)C2CC=CCC2C(=O)O)cc1 (stereo not given) reads -21%	1.9%	-1%	-14%	2%	24%	-5%	4%
COc1ccc(-c2sccc2C(C)C(=O)O)cc1 (stereo not given) reads -58%	4.0%	-5%	15%	1%	1%	-8%	2%

(continued)
SMILES | NS1 inh | Cruzain inh Det | SARS PLpro yeast | 2A StopGo | RE007 growth inh | Marburg entry inh | Cruzain inh noDet | Lassa entry inh
Cc1cccc(C(=O)NC(=S)NNC(=O)COc2c(C)cccc2C)c1 | -49% | 7.5% | -1% | -21% | 11% | ? | -25% | 1%
O=S(=O)(Nc1ccccc1N1CCCCC1)c1ccc(F)cc1 | -1% | / | -3% | -20% | -12% | ? | / | -25%
CCOC(=O)C1=C(c2ccccc2)NC(=O)NC1c1ccc(OCC#N)c(OC)c1 (stereo not given) | -3% | -0.3% | -4% | -22% | -10% | -20% | -8% | 3%
CC(C)C(=O)Nc1ncc(C(F)(F)F)cc1Cl | 0% | 0.3% | -8% | 12% | -23% | 8% | 5% | -7%
CC1(C)Cc2ccccc2C(=NCCCC(=O)O)N1 | 2% | 4.1% | -3% | 2% | -3% | -1% | -2% | 2%
CCOC(=O)C1CCCN(c2cc(C)nc3cc(-c4ccc(F)cc4)nn23)C1 (stereo not given) | -71% | 1.2% | -22% | / | 4% | ? | ? | -30%
CC1CCN(c2c(NCc3ccc(C(=O)NCc4cccnc4)cc3)c(=O)c2=O)CC1 | -35% | -1.9% | -15% | -20% | -2% | 35% | -2% | -6%
Cc1ccc(NC(=O)[C@H](C)NC(=O)C2CCN(C(=O)[C@@H](N)C(C)C)CC2)cc1 | 5% | / | 1% | -4% | 4% | / | / | /
CCc1ccc(NC(=O)C2CCCN(S(=O)(=O)c3ccc4c(c3)CC(C)N4C(C)=O)C2)cc1 (stereo not given) | -3% | / | 2% | -2% | 1% | / | / | /
CCn1nnc(C(=O)O)c1C(=O)O | 12% | 0.5% | -2% | 5% | 1% | -5%&-5% | -27% | -7%
NS(=O)(=O)c1ccc(NC(=O)COC(=O)CCc2ccc(S(=O)(=O)N3CCOCC3)cc2)cc1 | -1% | / | 1% | -9% | -4% | / | / | /
Cc1cccc(NC(=O)CSCC(=O)Nc2ccc(S(=O)(=O)N3CCCC3)cc2)c1 | / | / | -1% | -23% | 13% | -28%[46.1 µM] | / | -24%
Cc1cc(NC(=O)c2cc(-c3cccs3)nc3ccccc23)no1 | -23% | -7.0% | -7% | ? | -7% | / | 10% | /
O=C(Nc1ccnn1C1CCN(Cc2cccnc2)CC1)c1ccccc1Cl | 17% | / | 5% | -9% | -7% | 13% | / | ?
N#Cc1c(NC(=O)CN2CCN(S(=O)(=O)c3ccc4c(c3)OCCO4)CC2)sc2c1CCC2 | 8% | -1.2% | 1% | 10% | 8% | -5% | -16% | -7%
Oc1[nH]c(=S)sc1C=C1N=c2ccccc2=N1 | 1% | / | 1% | 16% | 4% | 2%[14.2 µM] | / | 16%
O=S(=O)(NC1CCCCC1)c1ccc(-c2csnn2)s1 | -34% | -1.3% | -31% | 38%[activator] | 11% | 1%[46.1 µM] | 5% | 21%
Nc1nnc(SCC(=O)NC2CCCC2)s1 | 0% | / | -10% | 2% | 3% | / | / | /
CCOc1c2ccc(C(=O)NCc3ccc(C(F)(F)F)cc3C(F)(F)F)cc2nn1C | 14% | -3.9% | -4% | -25% | -11% | / | ? | /
Cc1ccccc1OCC(=O)NC1CCCCCCC1 | -25% | / | 0% | -17% | 9% | -21%[46.1 µM] | / | -26%
CCc1ccc(-n2nc(CO)c(C(=O)NCC(c3ccccc3)c3ccccc3)n2)cc1 | / | -1.5% | / | -22% | / | -1%[46.1 µM] | -1% | -2%[46.1 µM]
COc1ccc(N2CCN(C(=O)c3ccc(NS(=O)(=O)c4cccs4)cc3)CC2)cc1 | / | / | 1% | 37%[activator] | -2% | 20%[46.1 µM] | / | ?
Cc1ccc(NC(=O)c2ccc(S(=O)(=O)N3CCCC3)cc2)nc1 | / | / | 3% | -12% | -13% | 16%[46.1 µM] | / | -16%
